Bioassay records deposited in PubChem BioAssay by National Center for Advancing Translational Sciences (NCATS).
VDR inhibitor – Inhibitors of the vitamin D receptor (VDR): qHTS; AID 504847, 2011; hit rate 0.93% among 400,000; VDR-SRC2-3 peptide fluorescence polarization, 2 h; Vitamin D3 receptor (Homo sapiens), P11473; Potency, µM, without a hit: max response, negative = inhibition, usual class: inhibitors; active means well fitted inhibition curve with a large enough effect; inconclusive means small, poorly fitted or top-dose-only effect, or another doubt; inactive means no such curve, though single readings can be large or run the other way; further: series mostly up to about 120 µM
Target sequence (P11473 whole entry, looked up): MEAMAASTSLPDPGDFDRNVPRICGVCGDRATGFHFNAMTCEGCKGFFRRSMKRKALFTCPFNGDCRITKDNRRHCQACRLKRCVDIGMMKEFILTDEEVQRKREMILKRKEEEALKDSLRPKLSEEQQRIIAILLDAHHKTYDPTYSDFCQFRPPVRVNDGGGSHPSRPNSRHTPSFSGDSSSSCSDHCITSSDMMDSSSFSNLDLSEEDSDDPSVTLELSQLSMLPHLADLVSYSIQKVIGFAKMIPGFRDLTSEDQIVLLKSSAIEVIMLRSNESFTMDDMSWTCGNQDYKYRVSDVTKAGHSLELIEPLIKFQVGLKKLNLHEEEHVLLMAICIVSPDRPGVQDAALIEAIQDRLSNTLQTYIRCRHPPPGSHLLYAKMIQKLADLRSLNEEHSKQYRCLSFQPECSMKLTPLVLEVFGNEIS
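FP read-out; VDR + SRC2-3 coactivator peptide; 23 nl compound by pintool; 2 h RT incubation; reagents held at 4 deg C, protected from light.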
* = called active by the depositor; ? = inconclusive; & = joins results of further samples; [ ] = dose if it differs, or a comment. On the % scale 0 is the no-effect control and ±100 the full control effect; potency means the concentration at half of the fitted maximal effect.

VDR inhibitor	SMILES
-1%	CNC(=O)c1sc2nc(-c3ccc(OC)cc3)cn2c1C
-14%	CCOC(=O)c1ncc2[nH]c3cccc(OC(C)C)c3c2c1C
3%	CC(C)(C)NC(=O)COC(=O)c1cc(Br)ccc1Cl
5%	Cc1cccc(S(=O)(=O)Nc2nc3ccccc3nc2Nc2ccc3c(c2)OCO3)c1
-9%	CN(C)CCCNC(=S)NCc1ccc(Cl)cc1
0%	CCCCOc1ccc(Br)cc1CSC(=N)N
5%	N#Cc1ccc(NCC(=O)Nc2ccc3c(c2)OCCO3)cc1
-1%	Cc1ccc(C(=O)N/N=C\c2ccc[nH]2)cc1[N+](=O)[O-]
13%	Cc1ccc(NC(=O)CN2C(=O)CSc3ccc(S(=O)(=O)N4CCCC4)cc32)cc1F
6%	O=C(COC(=O)c1ccc(Cl)c(S(=O)(=O)NCc2ccccc2)c1)NCC1CCCO1 (stereo unspecified)
2%	Cc1ccc(CNC(=O)C2CCN(Cc3nc(-c4cccc(Br)c4)oc3C)CC2)cc1
-6%	Cc1ccc(S(=O)(=O)NC[C@H]2O[C@@H](n3cnc4c(N)ncnc43)[C@H](O)[C@@H]2O)s1
-26%	N#CCCN(C(=O)COC(=O)C1CCN(S(=O)(=O)c2ccccc2C(F)(F)F)CC1)c1ccccc1
-7%	Cc1cccc(NC(=S)NCc2cccs2)c1
-10%	CC(C(=O)OCC(=O)c1cccc([N+](=O)[O-])c1)N1C(=O)C2C3CCC(C3)C2C1=O (stereo unspecified)
-17%	O=C(Cn1cnc2sc(-c3ccccc3)cc2c1=O)N1CCOCC1
30%	COc1ccc(/C=C(\NC(=O)c2ccccc2)C(=O)NCc2ccco2)cc1OC
-11%	CCN(C(=O)c1ccc2c(c1)OCO2)C12CC3CC(CC(C3)C1)C2
-13%	Cc1ccc(S(=O)(=O)N2CCCN(C)CC2)cc1
2%	COc1ccc(C(=O)N2CCN(S(=O)(=O)c3ccc(Br)cc3)CC2)cc1

A second format for part of the listing above.
SMILES: Cc1cccc(S(=O)(=O)Nc2nc3ccccc3nc2Nc2ccc3c(c2)OCO3)c1
  VDR inhibitor: 5%
SMILES: CN(C)CCCNC(=S)NCc1ccc(Cl)cc1
  VDR inhibitor: -9%
SMILES: CCCCOc1ccc(Br)cc1CSC(=N)N
  VDR inhibitor: 0%

Further results:
VDR inhibitor	SMILES
1%	Cc1ccc(NC(=S)N(CCCN(C)C)Cc2cc3cc4c(cc3[nH]c2=O)OCO4)cc1
10%	O=C(NCCCN1CCCC1=O)c1cc2ccccc2o1
6%	CCOC(=O)CSc1n[nH]c(NC(=O)c2ccc(F)cc2)n1
6%	Cc1csc(NC(=O)CCC(=O)N(CC(=O)NC2CCCC2)c2ccccc2)n1
-10%	COc1cc(C(=O)NCC(c2cccs2)N2CCOCC2)cc(Br)c1OCc1ccccc1 (stereo unspecified)
-5%	CCc1cc(C(=O)N2CCCC(CNC(=O)c3ccc(-c4ccccc4)cc3)C2)no1 (stereo unspecified)
12%	COCCN(CC(=O)Nc1cc(Cl)ccc1-n1cncn1)Cc1nc2ccccc2c(=O)[nH]1
5%	CC(=O)c1cccc(OCc2cc(C(=O)NCc3nc(C)c(C)s3)no2)c1
4%	CCCc1[nH]n(-c2nc3ccccc3s2)c(=O)c1C=NCC1CCCO1 (stereo unspecified)
6%	Cc1ccc(NC(=O)/C=C\C(=O)NCC(=O)O)cc1
?	CN(Cc1ccccc1)C(=O)c1[nH]cnc1C(=O)Nc1nccs1
22%	O=C1COc2c1ccc(O)c2O
-19%	COc1ccccc1-n1ccnc(SCC(=O)NCCc2ccccc2)c1=O
-12%	Cn1nnnc1SCC(=O)NNC(=O)c1ccc(F)cc1
-15%&0%	Cc1ccc(Cl)cc1NC(=O)COC(=O)C12CC3CC(CC(C3)C1)C2
-16%	Cc1cc(C(=O)CN2C(=O)CCC2=O)c(C)n1Cc1ccccc1
-13%	Cn1c(SCc2cccc(F)c2)nc2c([nH]c3ccccc32)c1=O
3%	CC1CCN(C(=O)CSc2nnc(-c3cccnc3)o2)CC1
-19%	CC(C)NC(=O)c1cc(-c2cccs2)nc2ccccc12
0%	CCCCCc1nc2sc3c(c2c(=O)n1N)CCC3
4%	OCCCc1nc2ccccc2n1Cc1ccccc1
12%	Cc1cc(C)c2cc(C(=O)N3CCN(c4ncccc4C(F)(F)F)CC3)[nH]c2c1
-8%	CCc1ccccc1N(C(=O)Cn1nnc2ccccc21)C(C(=O)NCCOC)c1ccco1 (stereo unspecified)
?	CC(c1ccccc1)N1CC(C(=O)Nc2ccc(F)cc2)CC1=O (stereo unspecified)
-13%	Cn1c(=O)[nH]c2ncccc21
-9%	O=C(NCC1(N2CCCCC2)CCCCC1)C1CC(=O)N(c2ccc3c(c2)OCCO3)C1 (stereo unspecified)
3%	Cc1cc(NC(=O)COn2nnc3ccccc32)no1
5%	Cc1cc(OCC(=O)NC(C)C)cc(C)c1Br
-7%	COc1ccc(C(=O)Nc2nncs2)c(OC)c1
12%	CC1(c2ccc(OC(F)F)cc2)NC(=O)N(CC(=O)Nc2ccc3c(c2)OCO3)C1=O (stereo unspecified)
17%	COc1ccc2[nH]c(=O)c(CNc3cc(C)ccc3C)cc2c1
-22%	CCOc1ccccc1CNC(c1ccccc1)c1ccccc1
-16%	O=C(c1ccc2ccccc2n1)N1CCN(c2ccccc2)CC1
-1%	COc1ccc([N+](=O)[O-])c(OC)c1C(=O)NC(=O)Nc1nc(C)nc(C)n1
-3%	C=CCOc1ccc(/C=N/n2cncn2)cc1OC
-30%	CN(C)c1ccc(P(=O)(OC2CCCCC2)C(O)c2ccccn2)cc1 (stereo unspecified)
6%	Cc1cc(C(=O)Nc2ccc(F)cc2C)cs1
-13%	S=c1nc2ccccc2c2nc(-c3ccccc3)[nH]n12
45µM*	CC(=O)NCCNc1ncnc2ccc(-c3ccccc3C)cc12
-8%	CC(=O)Nc1ccc(S(=O)(=O)NCCc2ccccn2)cc1
1%	O=C(Nc1ccc(C(=O)N2CCCc3ccccc32)cc1)c1cccs1
?	O=C1CCCC2=C1C(c1ccc(Br)cc1)c1c([nH]c(=S)[nH]c1=O)N2 (stereo unspecified)
4%	COc1cc(/C(C)=N/NC(=O)c2cccc(S(=O)(=O)N3CCCC3)c2)cc(OC)c1OC
14%	O=C(N/N=C/c1ccc(F)cc1)c1ccc(OCc2ccccc2)cc1
-3%	Cc1onc(-c2ccccc2Cl)c1C(=O)Nc1nc2ccc(S(C)(=O)=O)cc2s1
-10%	Cc1ccccc1-n1c(SCC(=O)NCC2CCCO2)nc2c([nH]c3ccccc32)c1=O (stereo unspecified)
2%	CSc1cccc(NC(=O)C2CCN(C(=O)c3cnn(-c4ccccc4)c3-n3cccc3)CC2)c1
2%	Cc1cc(C)cc(NC(=O)CN2C(=O)c3ccccc3C2=O)c1
-5%	COc1cc2[nH]c(=O)n(CCCC(=O)N3CCN(c4cccc(C(F)(F)F)c4)CC3)c(=O)c2cc1OC
-10%	CCCCC(CC)COC1(c2ccccc2)OC(=O)c2ccccc21 (stereo unspecified)
6%	COc1ccc(-c2nnc(NC(=O)c3ccc(S(=O)(=O)N(C)CC4CCCO4)cc3)o2)c(OC)c1 (stereo unspecified)
-9%	CCCC1C(c2ccco2)NC(c2ccco2)CC1(C)O (stereo unspecified)
9%	COc1cc(NC(=O)C2=CC(c3ccc(F)cc3)=NS(=O)(=O)N2C)cc(OC)c1OC
-15%	CSC1=NCCN1C(=O)c1ccc2c(c1)OCO2
1%	CCn1c(O)c(C=C2N=c3ccccc3=N2)sc1=S
-17%	O=C(c1cc(C2CC2)nn1-c1ccccc1)N1CCN(Cc2ccccc2F)CC1
-8%	CC1CCN(C2=NC(=O)/C(=C/c3cccc(O)c3)S2)CC1
?	COCCNC(=O)CSc1c2c(nc3cc(Cl)ccc13)CCCC2
-3%	O=C(c1nc2ccccn2c1CN1CCCC(c2nc3ccccc3o2)C1)N1CCCC1 (stereo unspecified)
9%	CCC(SC1=NCCS1)C(=O)Nc1nnc(-c2ccccc2OC)s1 (stereo unspecified)

Next section:
VDR inhibitor	SMILES
-6%	CCOC(=O)c1c(N2CCCCC2)c2ccccc2[nH]c1=O
-9%	CCN(CC)c1ccc(C=Nc2cc(C)ccc2C)c(O)c1
-1%	CCOc1cccc(=O)c2c(C)n(Cc3ccco3)c(C)c12
-10%	COc1cccc(/C=C(\C#N)c2nc3ccccc3c(=O)[nH]2)c1OC
0%	Cc1ccc(NC(=O)CCC(=O)N/N=C/c2ccc([N+](=O)[O-])o2)cc1C
-25%	COc1ccc(/C=N/NC(=O)CC#N)cc1Oc1nc(Cl)ncc1F
7%	COCCNc1ccc([N+](=O)[O-])cc1C(=O)Nc1cccc(C)n1
1%	CC(C)OC(=O)Cn1nnc2c(cnn2-c2ccccc2)c1=O
33%[activator]	Cc1nnc(SCC(=O)Nc2sccc2C(N)=O)s1
-2%	O=C(C1=C[C@@H](c2ccc(Br)cc2)C[C@@H](OCc2ccc(CO)cc2)O1)N1CCOCC1
9%	Cc1ccc(NCc2cccn2-c2nnc(N3CCC(C(=O)NCc4ccc(OC(C)C)cc4)CC3)s2)cc1
-5%	CN(C)S(=O)(=O)c1cccc(C(=O)NC2CCCc3ccccc32)c1 (stereo unspecified)
20%&6%	CCOC(=O)c1c(C)cc(O)cc1O
45µM*	C=C(CN(C)C)C(=O)c1cc(C)ccc1C
-7%	COc1ccc(Cl)cc1NC(=O)CCN1C(=O)C2C3C=CC(C4CC34)C2C1=O (stereo unspecified)
11%	COc1ccccc1NC(=O)C1=C(C)Nc2nc(SCC(=O)c3ccc(C)cc3)nn2C1c1ccc(F)cc1 (stereo unspecified)
0%&6%&-3%	COC(=O)C1(C(=O)OC)Cc2conc2[C@H]1c1ccccc1
13%	CN(NS(=O)(=O)c1ccc(Br)cc1)c1nc(C(F)(F)F)nc2ccccc12
?	Cc1ccc(NC(=O)NNC(=O)c2cc3ccccc3cc2O)c(C)c1
14%	CCOC(=O)CC(=O)Nc1ccc(Br)cc1C(=O)O
7%	Cc1nc(-c2ccc(S(=O)(=O)Nc3ccc(C#N)cc3)cc2)co1
-22%	COC(=O)c1ccc(OC)c(Cn2c(=O)n(C)c(=O)c3sccc32)c1
4%	CSCCC(Nc1ccc(S(=O)(=O)N2CCOCC2)cc1[N+](=O)[O-])C(=O)OCC(=O)NCC(C)C (stereo unspecified)
4%	COC(=O)c1cc(S(=O)(=O)NCc2cccs2)c[nH]1
-11%	CCOc1ccc(C2OC(=O)Cc3cc(OC)c(OC)cc32)cc1 (stereo unspecified)
-2%	COc1ccc(CCN2C(=O)C(O)=C(C(C)=O)C2c2ccccc2OC)cc1OC (stereo unspecified)
5%	COc1ccc(N2CC(NC(=O)C3CCCCC3)CC2=O)cc1OC (stereo unspecified)
-14%	Cc1cc(N2C(=O)C(=O)/C(=C(/O)c3ccc(F)cc3)C2c2ccc(F)cc2)no1 (stereo unspecified)
12%	Cc1ccc2c(c1)C(C)CC(C)(C)N2C(=O)NC1CCCCC1 (stereo unspecified)
5%	Cc1ccc(S(=O)(=O)NC2=NCN(C3CCCCC3)CN2)cc1
-7%	Cc1ccc(NC(=O)CN(C)C(=O)CSc2nc3ccccc3c(=O)n2Cc2ccco2)cc1
0%	C/C(=N\NC(=O)C(N)=O)c1ccc(OC(F)F)cc1
2%	O=C(CN(C(=O)c1ccccc1)N1C(=O)CCC1=O)c1cccs1
-10%	COc1ccccc1Cc1noc(-c2cc(Cl)ccc2OC)n1
-16%	COc1cc(SC)ccc1C(=O)OC(C)C(=O)NC1CCCC1 (stereo unspecified)
-16%	CCOC(=O)c1cccc(NC(=O)CN2CCN(c3ccc(OC)cc3)CC2)c1
9%	COc1ccc(S(=O)(=O)N2CCCCC2)cc1NC(=O)CCNC(=O)c1ccco1
-6%	Cc1ccc(Sc2c(C)nn(C(C)(C)C)c2OC(=O)CC(C)C)cc1
8%	Cc1nn2c(=O)cc(COC(=O)c3ccc(NC(=O)COc4ccccc4F)cc3)nc2s1
7%	O=c1n(S(=O)(=O)c2cccc3cccnc23)c2ccccc2n1S(=O)(=O)c1cccc2cccnc12
-5%	COc1ccc(C2NCCc3cc(OC)c(OC)cc32)cc1OC (stereo unspecified)
-6%	Cc1cc(NC(=O)CSC2=NS(=O)(=O)c3cc(Cl)ccc3N2)no1
2%	COc1ccccc1-c1cc2nc(C)c(CCC(=O)NCc3cccc(Cl)c3)c(C)n2n1
5%	CCC(=O)c1cn(CC(=O)O)c2ccccc12
-4%	O=c1onc(-c2ccccc2)n1-c1cc(Cl)cc(Cl)c1
11%	Cc1ccc(C(=O)Nc2oc(-c3ccccc3)cc2C#N)cc1
-10%	CCOC(=O)c1c(-c2cccs2)csc1NC(=O)CC(C)C

Structures above that contain a thiophene ring, fused or not, in the order listed:
VDR inhibitor	SMILES
-6%	Cc1ccc(S(=O)(=O)NC[C@H]2O[C@@H](n3cnc4c(N)ncnc43)[C@H](O)[C@@H]2O)s1
-7%	Cc1cccc(NC(=S)NCc2cccs2)c1
-17%	O=C(Cn1cnc2sc(-c3ccccc3)cc2c1=O)N1CCOCC1
-10%	COc1cc(C(=O)NCC(c2cccs2)N2CCOCC2)cc(Br)c1OCc1ccccc1 (stereo unspecified)
-19%	CC(C)NC(=O)c1cc(-c2cccs2)nc2ccccc12
0%	CCCCCc1nc2sc3c(c2c(=O)n1N)CCC3
6%	Cc1cc(C(=O)Nc2ccc(F)cc2C)cs1
1%	O=C(Nc1ccc(C(=O)N2CCCc3ccccc32)cc1)c1cccs1
33%[activator]	Cc1nnc(SCC(=O)Nc2sccc2C(N)=O)s1
-22%	COC(=O)c1ccc(OC)c(Cn2c(=O)n(C)c(=O)c3sccc32)c1
4%	COC(=O)c1cc(S(=O)(=O)NCc2cccs2)c[nH]1
2%	O=C(CN(C(=O)c1ccccc1)N1C(=O)CCC1=O)c1cccs1
-10%	CCOC(=O)c1c(-c2cccs2)csc1NC(=O)CC(C)C

The list is partial (hit frequency here may not be typical).
